High-throughput results deposited in PubChem BioAssay by several laboratories.
RecA intein inh = Mtb RecA intein splicing inhibition; 290,000 compounds, 0.75% hits; cell-free RecA intein splicing, fluorescence; AID 2221; inhibition, %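 (about 9 µM by stock and volumes)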; in the data active means inhibition above about 30%; inconclusive means no clear call, values can overlap the other calls;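 further: 0% = vehicle wells and 100% = reference inhibitor control wells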
Target sequence (P9WHJ3 whole entry, looked up): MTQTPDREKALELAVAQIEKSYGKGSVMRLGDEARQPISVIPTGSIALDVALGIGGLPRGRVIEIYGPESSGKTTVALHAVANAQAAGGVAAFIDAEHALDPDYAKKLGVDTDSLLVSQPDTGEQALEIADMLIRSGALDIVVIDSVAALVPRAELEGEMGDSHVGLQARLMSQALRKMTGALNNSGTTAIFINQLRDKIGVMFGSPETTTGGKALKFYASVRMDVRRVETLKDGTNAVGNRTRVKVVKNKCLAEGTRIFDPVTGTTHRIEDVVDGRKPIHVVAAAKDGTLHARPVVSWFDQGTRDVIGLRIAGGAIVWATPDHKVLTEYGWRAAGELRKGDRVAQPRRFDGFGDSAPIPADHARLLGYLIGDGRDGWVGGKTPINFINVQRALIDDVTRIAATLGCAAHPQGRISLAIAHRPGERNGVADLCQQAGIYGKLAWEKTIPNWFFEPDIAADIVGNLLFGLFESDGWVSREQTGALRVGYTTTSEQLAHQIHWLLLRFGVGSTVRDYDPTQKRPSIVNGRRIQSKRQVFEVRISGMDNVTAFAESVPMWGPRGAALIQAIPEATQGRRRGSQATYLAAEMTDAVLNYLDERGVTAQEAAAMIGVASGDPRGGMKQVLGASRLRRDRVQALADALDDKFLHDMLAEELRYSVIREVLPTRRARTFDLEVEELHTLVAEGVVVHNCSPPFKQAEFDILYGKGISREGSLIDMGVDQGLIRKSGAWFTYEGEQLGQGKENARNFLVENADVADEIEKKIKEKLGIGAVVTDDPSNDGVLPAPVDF
YopH PTP inh = YopH (Yersinia) phosphatase inhibition; fluorescence Ex485/Em525; inhibition, %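 (about 10 µM by stock and volumes)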; AID 898; 140,000 compounds, 0.16% hits;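 active means inhibition of 50% or more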;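 further: controls were vehicle for no effect and minimum signal wells for full effect; inactives centre near -20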
Mtb bLac sens = beta-lactam sensitization of Mtb H37Rv; M. tuberculosis H37Rv growth with meropenem, percent inhibition; hits of this screen are not shown here; 330,000 compounds, 0.27% hits; AID 434955; inhibition, % at 25 µM;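 active means about 74% or more and at least 40 points above the plate without the antibiotic, then above 30% in a dose series; inconclusive means first-round hits that could not be retested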;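 further: growth measured after seven days incubation then overnight dye step; 0% = bacteria only wells and 100% = bacteria with antibiotic; twin plates without the antibiotic show which effects depend on it; some results filed as inactive read as strong as hits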
Arbovirus anti = blocks arbovirus infection; inhibition, % at 10 µM; AID 1251; arbovirus infection cell-based antiviral screen; 200,000 compounds, 0.37% hits;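 active means inhibition from about 30%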;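 further: bluetongue infection of BSR cells; cell survival read as ATP light after 72 h; 0% = infected wells without compound and 100% = uninfected wells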
Mtb growth = M. tuberculosis H37Rv growth inhibitors, H37Rv strain (AID 1626) | M. tuberculosis H37Rv growth inhibition; higher % means a stronger effect | inhibition, % at 10 µM, or IC50 in µM where a hit was titrated | 220,000 compounds, 0.95% hits;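 active means confirmed in a dose series; inconclusive means inhibition above 80% but not taken into the dose series; inactive means below 80% or under 30% at every dose of the series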;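 further: bacteria incubated seven days before Alamar blue readout; 0% = bacteria only wells and 100% = bacteria with antibiotic wells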
Arbovirus anti repeat = recorded beside Arbovirus anti, whose call it bears; inhibition, %; measured here: 10K subset replicate screen; many hits read low in the repeat;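 first of two repeat runs on a subset; 0% = infected and 100% = uninfected wells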
Active calls of the source: *; ? = inconclusive; · = no result given.

SMILES	RecA intein inh	YopH PTP inh	Mtb bLac sens	Arbovirus anti	Mtb growth	others
COc1ccc(C(=O)Nc2ccc3nc(N4CCCCC4)cc(C)c3c2)c(OC)c1	-5.8	-34.3	·	-6.6	-7.5%
COc1cc(-c2nc3cnccn3c2Nc2ccc(C)cc2)ccc1O	-2.6	-23.3	-0.1	-12.7	-1.4%
O=C(O)c1ccccc1SC1CC(=O)N(c2ccc3c(c2)OCO3)C1=O (stereo unspecified)	3.0	·	-12.0	-0.8	-0.1%
Cc1ccc(S(=O)(=O)N2C=CC(C(F)(F)F)=NCC2)cc1	-2.9	-21.0	-8.4	3.1	-11.7%
CCOC(=O)C1CCN(S(=O)(=O)c2cn(C)cn2)CC1	1.0	·	-5.8	·	·
Cc1cccc(OCc2nc(C#N)c(NCCN(C)C)o2)c1	1.8	-20.2	0.6	-3.2	·	Arbovirus anti repeat=0.6
Cc1ccc(SCC(=O)Nc2cc(C)on2)cc1	-1.6	8.0	6.5	3.5	1.8%
Nc1cc(-c2nn[nH]n2)ccc1F	-9.8	-6.7	5.0	9.9	-0.2%
Cc1cc(NC(=O)c2ccc3c(c2)C(=O)N(C(C)(C)C)C3=O)no1	-0.8	·	-1.4	3.6	6.7%
CCCCC(=O)Nc1cccc(C(=O)N/N=C/c2ccc(OC)cc2OC)c1	0.0	-6.8	-0.7	-2.1	5.1%
CN(Cc1ccccc1)C(=O)c1[nH]cnc1C(=O)N[C@@H](CCCCNC(=O)OC(C)(C)C)C(=O)OC(C)(C)C	1.3	·	-0.3	-5.8	-5.7%
FC(F)(F)COc1nc(OCC(F)(F)F)nc(N2CCN(c3ccccc3)CC2)n1	2.9	-22.3	8.9	15.1	-0.4%
COc1cccc(C2/C(=C(/O)c3ccc4c(c3)CC(C)O4)C(=O)C(=O)N2c2nnc(C)s2)c1 (stereo unspecified)	0.1	·	-0.6	·	·
Cc1cccc(C(=O)NCc2nnc(SCC(=O)NC3=NCCS3)n2C)c1	-3.4	·	-2.0	·	·
CC1=Nc2cc(C(=O)NCC3CCCO3)ccc2Sc2ccc(C)cc21 (stereo unspecified)	-1.6	·	5.4	·	·
CC(=O)Nc1ccc(S(=O)(=O)N2CCN(CC(=O)N3CCOCC3)CC2)cc1	-3.3	·	-7.2	·	2.6%
O=C1CCc2cc(S(=O)(=O)NCCC(=O)N3CCN(c4cccc(Cl)c4)CC3)ccc2N1	·	-31.4	0.1	-6.9	-8.9%
C=Cc1ccc(Cn2nc(-c3ccccc3)ccc2=O)cc1	1.4	·	-0.2	·	·
CC1(C)OC2C(CO)OC(n3cnc4c(=S)nc[nH]c43)C2O1 (stereo unspecified)	-3.8	·	-1.0	·	-0.4%
C/C(=N\NC(=S)Nc1ccc(C(C)C)cc1)c1ccc2c(c1)OCO2	1.9	·	40.7	-12.2	21.0%
On1c(-c2ccc(Cl)cc2)nc2ccccc21	4.8	·	14.9	18.3	31.0%
Nc1ccc2c(c1)OCCOCCOCCOCCOCCO2	6.0	·	-9.0	1.6	-0.8%
CCOC(=O)Cn1ccc(-c2ccccc2)c(C#N)c1=O	-0.5	·	-6.8	5.2	-0.5%
CCN(c1ccccc1)S(=O)(=O)c1cc2c3c(c1)CCN3C(=O)CC2	0.0	·	-12.4	·	·
CCNS(=O)(=O)c1ccc(CCC(=O)NC2CCCC2)cc1	-2.5	-0.3	6.1	7.5	3.7%
Cc1cc(C)cc(NC(=O)CCCN2C(=O)C(c3ccccc3)Oc3cccnc32)c1 (stereo unspecified)	0.1	·	-8.1	·	·
COC(=O)c1ccc(/C=C/C(=O)c2cccc(OC)c2)cc1	2.1	-44.6	100.0	-37.9	?
CN(C(=O)c1ccc2c(c1)SC1=NS(=O)(=O)CCN12)C(c1ccccc1)c1ccccc1	3.9	-15.8	6.6	-7.2	1.2%
COc1ccc(CNC(=O)C2CCCN(S(=O)(=O)c3ccc4c(c3)C(C)(C)C(=O)N4C)C2)cc1 (stereo unspecified)	0.5	·	-1.6	·	·
CCC(C)(C)NC(=O)C1CCN(c2nc(C)cc(C)n2)CC1	1.9	-38.9	1.2	6.5	-5.9%
Cc1nn(-c2nc(-c3ccco3)cc(C(F)(F)F)n2)c(C)c1Br	1.7	-5.5	5.0	2.4	-5.1%
O=C(c1ccccc1)N1N=C(C(F)(F)F)CC1(O)c1ccccc1O (stereo unspecified)	10.0	·	11.1	·	·
CS(=O)(=O)c1nc(-c2cccs2)cc(C(F)(F)F)n1	·	-1.1	100.2	-25.8	6.7%	Arbovirus anti repeat=-30.1
CC(C)(C)C(=O)N1CCN(S(=O)(=O)c2ccc3c(c2)OCCCO3)CC1	-0.3	·	-8.4	·	·
Cc1cc(=O)oc2cc3c(cc12)OCO3	-4.8	·	-3.0	·	·
CCCCCCOC(=O)Nc1ccc(S(=O)(=O)Nc2cccc([N+](=O)[O-])c2)cc1	-1.5	-22.3	-7.4	8.5	-2.5%
Cc1ccc(-c2nc(NCCCO)c3ccccc3n2)cc1	-1.4	·	13.8	·	·
COc1ccc([N+](=O)[O-])cc1NC(=O)C1(c2ccc(OC)c(OC)c2)CCOCC1	0.3	·	-4.3	-3.2	-2.4%
COc1cccc(-c2nc(NC3CCCC3)c3ccccc3n2)c1O	8.3	·	35.4	·	·
Oc1ccc(-c2nnc(-c3ccccc3)c(-c3ccccc3)n2)cc1	-1.5	-21.1	10.0	-21.4	1.1%
COc1ccc(CCNC(=O)c2cc(-c3cc(C)c(C)cc3O)n[nH]2)cc1OC	1.3	32.8	-14.4	2.3	-3.6%
OCCN=C1CCCc2c1[nH]c1ccc(Br)cc21	6.3	-45.6	10.2	8.4	0.9%
CCCOc1ccc(Oc2ccc(S(=O)(=O)N3CCN(C)CC3)cn2)cc1	-3.4	·	-5.0	·	·
CCN(C(=O)COC(=O)c1c(-c2ccccc2)noc1C)c1c(N)n(Cc2ccccc2)c(=O)[nH]c1=O	-0.4	·	-3.8	·	·
CCOC(=O)C(C)Sc1nc(N2CCOCC2)c2c(c1C#N)CC(C)(C)OC2 (stereo unspecified)	0.3	·	-13.1	·	·
O=C(CN1CCN(C(=O)c2ccco2)CC1)Nc1cc(C(F)(F)F)ccc1Cl	3.3	-24.9	-0.1	-0.8	23.2%
COc1ccc2cc3c(N)c(C(=O)N4CCCC4)sc3nc2c1	7.4	-38.2	34.4	-21.6	10.8%
COc1ccccc1NC(=O)c1ccc(CSc2ncccn2)cc1	0.5	·	42.8	-4.7	-2.0%
CC1(C)OC2C(O1)[C@@H](CO)O[C@H]2n1cnc2c(N)ncnc21 (stereo partly specified)	-4.9	·	-0.4	·	·
Cc1cccc(-n2c(O)c(C=NCCCN3CCOCC3)c3ccccc3c2=O)c1	-0.9	-23.7	-22.0	-8.5	-12.7%
Nc1nnc(SCc2ccccc2)n1-c1ccccc1	-1.7	-30.7	-21.1	1.3	2.0%
CCc1nc(C)cn1S(=O)(=O)c1ccc(Cl)c(Cl)c1Cl	10.5	-35.7	-4.6	4.6	-5.9%	Arbovirus anti repeat=4.3
CN(C)/N=C/C=C1\CC/C(=C\c2ccc(F)c(F)c2)C1=O	1.2	·	0.8	·	·
O=C(c1cnn2c(C(F)(F)F)cc(-c3ccccc3)nc12)N1CCOCC1	-2.6	-28.6	7.2	-4.0	-19.2%	Arbovirus anti repeat=-9.1
Cc1ccc(-c2ccc(/C=N/N3C(=O)C4C5C=CC(CC5)C4C3=O)o2)c([N+](=O)[O-])c1 (stereo unspecified)	4.1	-30.1	-5.2	5.7	10.0%
O=C(O)C1CCN(C(=O)OCc2ccccc2)CC1	0.5	-40.2	-5.0	3.0	-4.7%
CCOC(=O)C(=CNc1ccc2c(c1)CCN2C(C)=O)C(=O)OCC	·	·	78.9	·	14.5%
CCCNC(=O)c1oc2ccc3c(c2c1C)C(=O)CC(C)(C)O3	-4.0	4.5	10.5	-0.6	2.0%
COc1ccc(CN2CN(S(=O)(=O)c3ccccc3)c3nc4ccccc4nc32)cc1	-0.6	·	-1.1	·	0.2%
CCOc1ccc(OCCC(=O)NNC(=O)c2cc(OC)c(OC)c(OC)c2)cc1	-1.3	·	-3.3	·	·

Later entries:
SMILES	RecA intein inh	YopH PTP inh	Mtb bLac sens	Arbovirus anti	Mtb growth	others
Cc1c(CNCC(C)c2ccccc2)c(C(=O)O)c(C)n1Cc1ccccc1 (stereo unspecified)	0.6	·	-5.7	9.8	-0.3%
Cc1cc(C(=O)NC2CCCc3c2cnn3-c2ccc(C(C)(C)C)cc2)n[nH]1 (stereo unspecified)	2.0	·	72.2	·	·
CCOC(=O)Cn1c(S(=O)(=O)Cc2cccc(F)c2)nc(-c2ccccc2)c1-c1ccccc1	8.2	-23.2	-9.4	22.3	17.6%
CCOc1ccc2c(c1)C(c1ccc(C)o1)=NNC(c1ccncc1)=N2	2.6	·	7.7	7.7	-4.3%
CCCn1nc(C(=O)Nc2ccc3nc(C)sc3c2)c2ccccc2c1=O	3.0	-10.6	6.8	4.5	23.9%
COCc1nnc(NS(=O)(=O)c2ccc(NC(C)=O)cc2)s1	0.3	-17.6	-6.1	7.7	-3.2%
O=C1NC(c2cccnc2)Nc2sc3c(c21)CCCC3 (stereo unspecified)	-0.4	1.3	-4.8	0.7	-7.9%
COc1ccc(N2CCN(C(=O)COC(=O)COc3ccc(C#N)cc3)CC2)cc1	-6.9	·	-3.2	·	·
CCOCCCn1c(SCC(=O)Nc2ccccc2OC)nc2ccccc2c1=O	1.4	·	-0.9	·	·
Cc1cccc(NC(=S)NC2CCCCC2)n1	0.2	·	1.1	8.7	-1.7%
COc1cccc(N2CCN(c3cnc4ccccc4n3)CC2)c1	6.2	·	?	8.0	25.3µM*
Cn1c(N)c(C(=O)COC(=O)c2ccc(Br)o2)c(=O)n(C)c1=O	-2.0	-4.7	-16.6	-1.9	7.4%
CN1CCC(=NOc2ccc([N+](=O)[O-])cc2)CC1	5.8	·	-2.1	-9.7	-4.6%
Cc1ccccc1NC(=O)C1CCCN1S(=O)(=O)c1cccc2cccnc12 (stereo unspecified)	1.5	-44.4	-8.9	4.1	-2.6%
CC(C)OCCCNC(=O)[C@H]1N2C(=O)c3ccccc3C2SC1(C)C (stereo partly specified)	-0.1	·	-1.1	·	·
Cc1ccccc1OC(C)C(=O)Nc1ccc(S(=O)(=O)Nc2nccs2)cc1 (stereo unspecified)	5.5	·	-4.6	·	·
O=C(CSc1nnc(-c2ccccn2)o1)Nc1ccc(F)cc1	1.5	·	-6.8	·	·

Of the compounds above, 16 contain a halogen:
SMILES	RecA intein inh	YopH PTP inh	Mtb bLac sens	Arbovirus anti	Mtb growth	others
Cc1ccc(S(=O)(=O)N2C=CC(C(F)(F)F)=NCC2)cc1	-2.9	-21.0	-8.4	3.1	-11.7%
Nc1cc(-c2nn[nH]n2)ccc1F	-9.8	-6.7	5.0	9.9	-0.2%
FC(F)(F)COc1nc(OCC(F)(F)F)nc(N2CCN(c3ccccc3)CC2)n1	2.9	-22.3	8.9	15.1	-0.4%
O=C1CCc2cc(S(=O)(=O)NCCC(=O)N3CCN(c4cccc(Cl)c4)CC3)ccc2N1	·	-31.4	0.1	-6.9	-8.9%
On1c(-c2ccc(Cl)cc2)nc2ccccc21	4.8	·	14.9	18.3	31.0%
Cc1nn(-c2nc(-c3ccco3)cc(C(F)(F)F)n2)c(C)c1Br	1.7	-5.5	5.0	2.4	-5.1%
O=C(c1ccccc1)N1N=C(C(F)(F)F)CC1(O)c1ccccc1O (stereo unspecified)	10.0	·	11.1	·	·
CS(=O)(=O)c1nc(-c2cccs2)cc(C(F)(F)F)n1	·	-1.1	100.2	-25.8	6.7%	Arbovirus anti repeat=-30.1
OCCN=C1CCCc2c1[nH]c1ccc(Br)cc21	6.3	-45.6	10.2	8.4	0.9%
O=C(CN1CCN(C(=O)c2ccco2)CC1)Nc1cc(C(F)(F)F)ccc1Cl	3.3	-24.9	-0.1	-0.8	23.2%
CCc1nc(C)cn1S(=O)(=O)c1ccc(Cl)c(Cl)c1Cl	10.5	-35.7	-4.6	4.6	-5.9%	Arbovirus anti repeat=4.3
CN(C)/N=C/C=C1\CC/C(=C\c2ccc(F)c(F)c2)C1=O	1.2	·	0.8	·	·
O=C(c1cnn2c(C(F)(F)F)cc(-c3ccccc3)nc12)N1CCOCC1	-2.6	-28.6	7.2	-4.0	-19.2%	Arbovirus anti repeat=-9.1
CCOC(=O)Cn1c(S(=O)(=O)Cc2cccc(F)c2)nc(-c2ccccc2)c1-c1ccccc1	8.2	-23.2	-9.4	22.3	17.6%
Cn1c(N)c(C(=O)COC(=O)c2ccc(Br)o2)c(=O)n(C)c1=O	-2.0	-4.7	-16.6	-1.9	7.4%
O=C(CSc1nnc(-c2ccccn2)o1)Nc1ccc(F)cc1	1.5	·	-6.8	·	·

A portion of the library, so the mix of outcomes need not match the whole.
